Beta2AR agonist: agonists of human beta-2 adrenergic receptor inducing internalization | Am2.2-beta2AR cells, FAP receptor internalization, flow cytometry; reference of the scale not given here | response, % (test concentration not listed) | 0.43% of 340,000 active | AID 504454;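 active means response above a set limit, near 3 SD of response in nonfluorescent compounds, cut at about 42% in these data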;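 further: stock transfer was 100 nL into about 11 µL; a reference agonist was the positive control; negative values mostly stem from fluorescent compounds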
ALR inh: blocks human ALR sulfhydryl oxidase activity. purified ALR, DTT oxidation, H2O2 HRP-luminol luminescence. P55789. inhibition, % (no concentration beside the values). 3.8% of 290,000 active;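 active means mean and each replicate at 75% or more; inconclusive means only one of the two met; inactive means neither met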;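 further: stock transfer was 7.5 nL into about 7.5 µL; 0% = neutral wells and 100% = wells with inactivated enzyme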
FGF22 binding: shifts melting point of recombinant human FGF22; Q9HCT0; recombinant FGF22 thermal shift, SYPRO orange fluorescence; percent of sucrose octasulfate shift, DMSO zero; calls only at 9.99 µM; 1.5% of 340,000 active; AID 651658;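 active means melting point raised past a set limit in the mean and every replicate; inconclusive means no clear call; three in four hits are not shown here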
Target sequence (Q9HCT0 whole entry, looked up): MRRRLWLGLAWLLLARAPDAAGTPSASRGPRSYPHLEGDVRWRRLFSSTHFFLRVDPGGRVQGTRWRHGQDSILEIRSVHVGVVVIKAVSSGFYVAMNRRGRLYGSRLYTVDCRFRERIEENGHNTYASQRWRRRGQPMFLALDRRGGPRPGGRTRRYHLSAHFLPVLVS
Ecoli growth: inhibitors of Escherichia coli growth; OD600, 23 h; stronger effect = lower value; OD600 absorbance (concentration not given with the values); 0.21% of 330,000 active; AID 1053175;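 active means OD600 absorbance below the run mean of sample wells minus 3.6 SD, in any replicate, cut at about 0.56 in these data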;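 further: stock transfer was 300 nL into about 60 µL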
LANA-H2A inh: blocks KSHV LANA binding to histone H2A/H2B | cell-free LANA-H2A/H2B peptide, fluorescence polarization | inhibition, % (no concentration beside the values) | 0.6% of 320,000 active; in the data active means inhibition mostly above about 10%, no sharp cut-off; inactive means mostly below about 6.7%;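 further: stock transfer was 7.5 nL into about 10 µL; 0% = median of vehicle wells and 100% = median of positive control wells; one replicate is shown; the record names a cut of 25% in any replicate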
HNF4A DNA FP: change in binding of human HNF4 alpha to DNA. HNF4a-FITC DNA binding, fluorescence polarization, 1 h. 0.3% of 360,000 active. activity change, % at 10 µM. P41235; in the data active means activity change above about 30%, passing the limit was not always enough;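 further: controls were the assay level and a saturating level of protein; the project sought stronger binding though the title names inhibitors; some compounds called inactive have numbers as strong as hits; positive values seem to mean higher polarization but the record does not say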
Target sequence (P41235 whole entry, looked up): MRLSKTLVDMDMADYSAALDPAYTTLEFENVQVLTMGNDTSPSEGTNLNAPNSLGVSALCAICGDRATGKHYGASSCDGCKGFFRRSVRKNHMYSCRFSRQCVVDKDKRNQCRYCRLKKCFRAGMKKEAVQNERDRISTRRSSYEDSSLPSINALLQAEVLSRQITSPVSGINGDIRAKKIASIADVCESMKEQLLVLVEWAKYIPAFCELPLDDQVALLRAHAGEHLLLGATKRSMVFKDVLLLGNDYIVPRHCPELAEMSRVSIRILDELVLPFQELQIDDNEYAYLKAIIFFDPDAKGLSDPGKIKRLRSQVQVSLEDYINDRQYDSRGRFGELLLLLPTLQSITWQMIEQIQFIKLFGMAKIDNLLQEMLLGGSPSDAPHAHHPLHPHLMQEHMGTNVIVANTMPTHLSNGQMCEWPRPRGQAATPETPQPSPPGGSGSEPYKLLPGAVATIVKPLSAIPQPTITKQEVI
UCH37 DUB inh: blocks the human deubiquitinase UCH37. Q9Y5K5. purified proteasome/UCH37, Ub-AMC cleavage fluorescence. inhibition, % (no concentration beside the values). 0.33% of 330,000 active. AID 588478;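 active means mean of two replicates above 20%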;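 further: 0% = compound-free wells with enzyme and 100% = wells lacking proteasome; stock transfer was 100 nL into about 20 µL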
Target sequence (Q9Y5K5 whole entry, looked up): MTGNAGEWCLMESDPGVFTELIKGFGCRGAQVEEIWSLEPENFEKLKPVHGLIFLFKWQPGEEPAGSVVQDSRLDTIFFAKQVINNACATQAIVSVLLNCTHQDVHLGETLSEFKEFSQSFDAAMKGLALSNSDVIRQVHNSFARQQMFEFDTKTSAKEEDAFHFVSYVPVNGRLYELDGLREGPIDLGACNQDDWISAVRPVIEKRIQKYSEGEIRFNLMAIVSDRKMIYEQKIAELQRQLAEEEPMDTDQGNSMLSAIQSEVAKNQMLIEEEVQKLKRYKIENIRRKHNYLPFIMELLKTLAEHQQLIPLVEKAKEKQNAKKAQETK
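system = Proteasome-associated human UCH37 deubiquitinase | amount = 0.15 nM proteasome as dispensed | medium = pH 7.4 Tris-HCl (50 mM) with ovalbumin, ATP-MgCl2, DTT | incubation = 30 min preincubation with enzyme, 25 min cleavage at room temperature | detection = AMC fluorescence 355/460 nm | read-out basis = percent inhibition | controls = no-proteasome and no-compound wells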
* marks the source's active call; other numbers are inactive results; i = inactive; ? = inconclusive; . = no result given; & = joins results of further samples. This is a subset; the hit share may differ from the screen's.

Beta2AR agonist	ALR inh	FGF22 binding	Ecoli growth	LANA-H2A inh	HNF4A DNA FP	UCH37 DUB inh	Molecule
-7	1	i	.	1.1	1.9	.	C/C(=N\NC(=S)NCc1ccccc1)c1ccc(C#N)cc1
9	-10	.	0.7	-5.8	0.1	1.8	COc1ccccc1NC(=O)CC1C(=O)NCCN1C(=O)Nc1ccc(Cl)c(Cl)c1 (centres undefined)
12	.	i	0.7	.	0.7	7.8	Cc1ccc(OCCC(=O)Nc2ccc(S(=O)(=O)N3CCCC3)cc2)cc1
5	2	.	0.65	1.1	2.6	0.8	COc1ccccc1-n1c(=O)oc2ccc(Cl)cc2c1=O
-4	1	i	0.68	-4.4	3.2	5.7	CSCCC(NC(=O)c1ccccc1Br)C(=O)NNC(=O)c1ccncc1 (centres undefined)
-3	-2	i	.	2.2	0.7	.	CCOC(=O)N1CCN(c2nc3ccccc3n3cnnc23)CC1
6	-10	i	0.68	0.8	-2.4	5.2	O=[N+]([O-])c1cccc(S(=O)(=O)N2CCCCC2)c1
1	.	.	0.66	-3.0	1.0	4.2	O=C(CN1CCCCCC1)Nc1ccccc1F
6	-9	.	0.64	1.0	3.2	3.2	O=C(CCC(=O)OCC(=O)c1ccc(-c2ccccc2)cc1)Nc1cccc(Cl)c1
2	-10	i	0.64	-1.3	-5.0	-1.6	Cc1ccccc1CNCCCSc1ncccn1
-4	-9	i	0.68	-7.1	-1.0	-2.7	CC(C#N)Sc1nnc(-c2ccccc2F)n1C1CC1 (centres undefined)
-3	-7	.	0.73	0.9	-0.8	1.3	Cc1ccc(CNC(=O)NC2CCCCC2)cc1
-2	55	.	0.67	-3.2	-1.1	0.1	N=C1C(c2ccc(Br)cc2)=C(O)C2CCc3ccccc3N12 (centres undefined)
3	73	i	.	4.1	-4.8	.	CCn1c(CN2CCN(c3ccc(OC)cc3)CC2)nc2cc(S(=O)(=O)N(C)C)ccc21
-10	-10	.	0.68	3.0	0.1	4.1	CCCOc1ccc(C(=O)N2CCN(c3ccc(NC(=O)CC)cc3Cl)CC2)cc1
18	1	i	0.7	11	17	2.1	O=C(NCc1ccccc1C(F)(F)F)c1cccc2c1C(=O)c1ccc(N3CCOCC3)cc1S2(=O)=O
-3	.	i	0.71	.	-3.5	0.9	O=C(Cc1cccc(NC(=O)C2CCN(S(=O)(=O)c3cccc([N+](=O)[O-])c3)CC2)c1)Nc1cccc(C(=O)N2CCCCC2)c1
3	-3	i	0.66	-2.7	2.6	3.4	CCOC(=O)C1=C(C)NC(c2cccs2)C(=O)N1 (centres undefined)
-2	-1	i	0.71	3.6	1.2	3.5	Cc1cc(NC(=O)CSc2ncc(C(F)(F)F)cc2Cl)no1
1	-1	.	0.7	-1.5	-2.4	-5.5	O=C(NCc1ccccc1)Nc1cccn(Cc2ccccc2)c1=O
4	0	i	0.68	-9.5	3.7	2.2	CC(NC(=O)Cc1ccc(NS(=O)(=O)c2cccc(C(F)(F)F)c2)cc1)c1ccccn1 (centres undefined)
22	.	i	0.75	.	-3.5	6.7	O=C(c1ccccc1)N1CCC(c2nc3c(nnn3Cc3ccco3)c(=O)[nH]2)CC1
-12	.	.	0.73	-2.2	-1.2	1.8	CC(C)NC(=O)Cc1ccc(Br)cc1
-7	-4	i	0.68	-0.2	1.9	1.1	COc1ccc(OCc2nn[nH]n2)cc1
-6	.	.	.	2.2	-2.1	.	CC(/C=N/NC(=O)Cc1cccs1)=C\c1ccccc1
0	9	.	0.7	2.1	-1.7	2.9	CCCC(c1nnnn1C1CCCC1)N1CCN(c2ccccc2F)CC1 (centres undefined)
3	-9	.	0.73	2.8	1.2	4.6	CC(C)NC(=O)c1ccccc1NC(=O)C1COc2ccccc2O1 (centres undefined)
-1	0	i	0.66	1.5	6.4	4.0	CN(C)C(=O)c1nc2ccc(Cl)cn2c1CNCc1ccccc1OC(F)(F)F
4	-1	.	0.69	0.2	-0.9	2.0	O=C(NCc1ccc2c(c1)OCO2)C1CCN(S(=O)(=O)N2CCOCC2)CC1
-10	.	i	0.68	.	2.0	6.4	c1ccc(-c2csc(CN3CCCCC3)n2)cc1
6	1	i	.	-0.5	-1.7	.	C[C@H](CO)N1C[C@H](C)[C@@H](CN(C)C(=O)Nc2ccc(C(F)(F)F)cc2)Oc2c(NC(=O)Nc3ccc(C(F)(F)F)cc3)cccc2C1=O
2	.	.	0.69	-4.4	2.7	2.3	O=C(CSc1nnc(NC(=O)c2ccco2)s1)NC1CCCC1
5	-2	i	0.66	10.0	0.8	1.4	COCCN1Cc2cc3cc(C)ccc3nc2SC1=Nc1cccc(OC)c1
-2	.	i	0.69	.	-1.1	-0.3	COc1ccc(C2=CC(=O)C[C@H](COCc3ccccc3)N(C(=O)OC(C)(C)C)O2)cc1
-7	9	i	0.68	-1.7	3.4	2.2	CCOCCCNC(=O)c1ccc2c(c1)ncn2-c1cccc(C)c1
-7	.	i	0.69	-0.9	-1.1	6.0	Cn1cnc2cc(NC(=O)c3ccc(Cl)cc3)ccc21
7	22	.	0.49*	-0.6	-0.9	-7.8	CCOc1ccc(Nc2nc(NCC3CCCO3)c3ccccc3n2)cc1 (centres undefined)
1	1	i	0.71	13	-0.4	4.5	COc1ccc2nc(NC(=O)C3CCN(C(=O)c4ccco4)CC3)sc2c1
-5	1	i	0.65	-3.7	1.6	-0.8	O=C(NNC(=S)Nc1ccccc1)NNC(=S)Nc1ccccc1
5	?	.	0.74	3.1	-1.3	4.9	COc1ccc(S(=O)(=O)Nc2c(C(=O)O)[nH]c3ccccc23)c(OC)c1

Two compounds drawn at random from the list so far, as already listed:
Beta2AR agonist	ALR inh	FGF22 binding	Ecoli growth	LANA-H2A inh	HNF4A DNA FP	UCH37 DUB inh	Molecule
4	-1	.	0.69	0.2	-0.9	2.0	O=C(NCc1ccc2c(c1)OCO2)C1CCN(S(=O)(=O)N2CCOCC2)CC1
-7	-4	i	0.68	-0.2	1.9	1.1	COc1ccc(OCc2nn[nH]n2)cc1

Ecoli growth, hit marks shown above
Beta2AR agonist	ALR inh	FGF22 binding	Ecoli growth	LANA-H2A inh	HNF4A DNA FP	UCH37 DUB inh	Molecule
7	22	.	0.49*	-0.6	-0.9	-7.8	CCOc1ccc(Nc2nc(NCC3CCCO3)c3ccccc3n2)cc1 (centres undefined)

(listing goes on)
Beta2AR agonist	ALR inh	FGF22 binding	Ecoli growth	LANA-H2A inh	HNF4A DNA FP	UCH37 DUB inh	Molecule
-4	40	i	0.67	-15	0.2	2.5	CCCc1c(O)nc(SCC(=O)O)[nH]c1=O
4	19	i	0.75	3.4	-4.1	7.5	CC1CCCCN1S(=O)(=O)c1ccc(C(=O)N(CCCN(C)C)c2nc3cc4c(cc3s2)OCO4)cc1 (centres undefined)
8	34	.	0.73	1.3	-0.7	4.5	CCOC(=O)c1c(-c2ccc(C)o2)csc1NC(=O)CN1CCOCC1
-2	-3	i	0.63	-0.9	-0.1	1.7	CCCCN(C(=O)c1ccco1)c1c(N)n(CCC)c(=O)[nH]c1=O
3	-6	i	.	2.5	3.1	1.7	C/C=C/C(=O)N1CC2(CC(c3cccc(NC(=O)CC(c4ccccc4)c4ccccc4)c3)=NO2)C[C@H]1C(N)=O (some centres undefined)
-5	3	i	0.68	-3.4	4.2	4.4	CCCNC(=O)C(Cc1cccc(OC)c1)NC(=O)c1ccc(C#N)cc1 (centres undefined)
-5	-1	i	0.73	0.3	-2.1	0.7	O=C(NC1CC(=O)N(c2ccc(Cl)cc2)C1)N1CCN(C(=O)c2ccco2)CC1 (centres undefined)
-5	-4	.	0.73	-0.3	2.2	-1.9	CCOC(=O)c1ccc(NC(=O)C2=C(C)Nc3nc(CCCO)nn3C2c2ccc(OC)cc2)cc1 (centres undefined)
-2	-9	i	0.7	1.3	-5.7	2.4	CCOc1ccc(CC(=O)Nc2cc(=O)n(C)c(=O)n2C)cc1
-5	43	i	.	4.2	-13	.	CC1(CC(=O)N/N=C/c2cc([N+](=O)[O-])c(O)cc2O)OCCO1
4	.	i	0.71	2.7	-4.8	4.4	O=S(=O)(NC(=S)NC1CCCCC1)c1ccc(Cl)cc1
1	-5	i	.	-1.5	2.7	.	CCOC(=O)C1(C/C(C)=N/NC(N)=O)CC(C)(C)OC1=O (centres undefined)
-5	-4	i	0.66	-11	1.1	4.5	CCN1CCN(S(=O)(=O)c2ccc(Cl)c(C(=O)N(C)Cc3cccc(OC)c3)c2)CC1
0	-5	.	0.69	2.8	0.7	4.6	CCOc1ccc(-n2c(=O)[nH]cc(C(=O)N3CCc4ccccc43)c2=O)cc1
-1	-5	.	0.66	-4.2	3.3	3.4	N#Cc1cnc(N)c(Br)c1
13	-7	.	0.72	-1.8	9.7	8.2	COc1ccc(N2C(=O)/C(=C/c3ccc([N+](=O)[O-])cc3)C=C2c2ccccc2)cc1
-5	.	i	0.71	-2.2	-3.8	2.1	CCC(=O)c1c(NC)cc(C)oc1=O
1	-7	i	0.69	3.7	8.4	1.8	Cc1onc(-c2ccccc2)c1C(=O)N1CCCN2C(=O)c3ccccc3C21 (centres undefined)
.	0	i	0.66	0.1	.	1.0	CCNc1nc(=S)nc(NCc2ccccc2)[nH]1
0	-2	i	0.71	0.1	-0.7	3.1	Cc1ccccc1CNS(=O)(=O)c1c(C(=O)N2CCCCC2)c(C)n(C)c1C

Three entries from above, ordered by their value in Beta2AR agonist, smallest number first.
Molecule | Beta2AR agonist | ALR inh | FGF22 binding | Ecoli growth | LANA-H2A inh | HNF4A DNA FP | UCH37 DUB inh
CCC(=O)c1c(NC)cc(C)oc1=O | -5 | . | i | 0.71 | -2.2 | -3.8 | 2.1
CCOC(=O)C1(C/C(C)=N/NC(N)=O)CC(C)(C)OC1=O (centres undefined) | 1 | -5 | i | . | -1.5 | 2.7 | .
CCOC(=O)c1c(-c2ccc(C)o2)csc1NC(=O)CN1CCOCC1 | 8 | 34 | . | 0.73 | 1.3 | -0.7 | 4.5

Remaining list, next part
Beta2AR agonist	ALR inh	FGF22 binding	Ecoli growth	LANA-H2A inh	HNF4A DNA FP	UCH37 DUB inh	Molecule
-3	-1	i	0.62	0.5	-2.4	2.1	CCN(C(=O)c1ccco1)C1C2CC3CC(C2)CC1C3 (centres undefined)
2	-6	i	0.75	0.2	-0.5	-1.1	COc1ccc(S(=O)(=O)Nc2ccc3c(c2)CC(=O)N([C@@H](C)CO)C[C@@H](C)[C@@H](CN(C)Cc2ccccc2)O3)cc1
.	0	.	.	0.1	.	3.8	CC(C)c1cc(C(C)C)c(S(=O)(=O)N2c3ccccc3[C@@]3(Br)C[C@H]4C(=O)N[C@@H](Cc5ccccc5)C(=O)N4[C@@H]23)c(C(C)C)c1
6	1	.	0.7	-3.3	3.6	0.7	Cc1cc(NC(=O)CN2C(=O)CC(c3ccco3)Sc3ccccc32)no1 (centres undefined)
15	.	i	0.72	.	0.9	-0.3	Cc1ccc(OCCNC(=O)c2cccc(S(=O)(=O)N3CCN(Cc4ccccc4)CC3)c2)cc1
-17	3	i	0.69	-1.6	2.2	-0.1	O=C(NCc1ccccc1)c1nncc(-c2ccccc2)n1
6	15	.	0.76	2.2	0.5	5.4	S=c1[nH]nc(COc2ccccc2)n1C1CCCCC1
-13	-7	.	.	0.9	5.5	-1.1	Cn1c2ccccc2n2c(=O)c(Cl)c(-c3ccccc3)c(C#N)c12
7	.	i	0.72	-2.5	-1.7	-1.8	CCCn1c(SCC(=O)Nc2cc(C)on2)n[nH]c1=O
-8	-13	i	0.61	0.0	1.8&0.8	0.2	CC(C)CC1Nc2ncnc(N3CCN(c4ccccn4)CC3)c2N(Cc2ccccc2)C1=O (centres undefined)
-6	-63	i	0.71	2.4	2.5	1.5	COc1cc(Cl)ccc1OCc1cc(C(=O)N(C)CC2CCCCO2)no1 (centres undefined)
-8	-6	i	0.65	4.3	1.7	-2.0	Cc1c(Cl)cccc1NC(=O)CC(Cc1ccccc1)C(=O)O (centres undefined)
-8	37	i	0.71	-5.4	1.8	1.2	CCOc1ccc(NC(=O)C(C)Sc2nccn2C)cc1 (centres undefined)

Assay outcomes: PubChem, several laboratories
